Screening data: PubChem, National Center for Advancing Translational Sciences (NCATS)
D2 PAM = Beta-Arrestin HTS for Positive Allosteric Modulators of the Human D2 Dopamine Receptor: Potentiators; DiscoveRx D2 beta-arrestin cells, luminescence, 90 min; 100% = 57 uM dopamine signal; 360,000 compounds, 0.23% hits; AID 624464, 2012; D(2) dopamine receptor (Homo sapiens), P14416; potentiation, % (concentration not given with the values); active = potentiation of 50% or more; inconclusive = 30% to 50%; inactive = 30% or less;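 also: tested on top of an EC20 dose of dopamine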
Target sequence (P14416 whole entry, looked up): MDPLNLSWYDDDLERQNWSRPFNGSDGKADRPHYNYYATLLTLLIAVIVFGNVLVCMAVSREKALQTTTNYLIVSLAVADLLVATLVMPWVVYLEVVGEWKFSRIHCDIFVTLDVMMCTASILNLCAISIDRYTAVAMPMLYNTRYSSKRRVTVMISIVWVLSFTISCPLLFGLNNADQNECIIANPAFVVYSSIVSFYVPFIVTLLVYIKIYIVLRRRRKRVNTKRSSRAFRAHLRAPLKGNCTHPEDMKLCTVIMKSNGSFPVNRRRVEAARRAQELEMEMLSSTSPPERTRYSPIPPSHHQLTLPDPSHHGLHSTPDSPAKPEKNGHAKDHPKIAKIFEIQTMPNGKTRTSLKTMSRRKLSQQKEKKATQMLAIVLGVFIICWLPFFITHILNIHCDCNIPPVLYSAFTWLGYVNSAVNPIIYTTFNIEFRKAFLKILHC
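PathHunter beta-arrestin assay in DiscoveRx D2 cells. Compounds were added with an EC20 of dopamine (50 nM final) for 90 min at 37 deg C. Luminescence was read 1 h after detection reagent, with 57 uM dopamine as the EC100 control.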
TRPV1 potentiator = HTS Assay for Compounds that Act as Potentiators of the Vanilloid Receptor 1 | Transient receptor potential cation channel subfamily V member 1 (Homo sapiens), Q8NER1 | TRPV1-expressing cells, Fluo-8 calcium influx, capsaicin EC20 potentiation; host cell line not named in the record; control for the full effect not named in the record | potentiation, % at 8.33 µM | 320,000 compounds, 0.02% hits | AID 540277, 2011; active means potentiation above 80%; inconclusive means 30% to 80%; inactive means below 30%; also: 0% is about no effect
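TRPV1-expressing cells were cultured overnight at 35.5C and loaded with Fluo-8 calcium dye for 40 to 90 min at room temperature. After a 10 s baseline, compound was added and calcium influx was read kinetically for 3 min (ex 480/em 520 nm).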
TRPML1 ag = qHTS for Agonists of the Human Mucolipin Transient Receptor Potential 1 (TRPML1) | Mucolipin-1 (Homo sapiens), Q9GZU1 | TRPML1-expressing cells, Ca2+ dye fluorescence, FDSS; host cell line not named in the record; reference of the full effect not given here | activation, % (concentration not given with the values) | 410,000 compounds, 0.12% hits | AID 624414, 2012; in the data active = activation above about 50%; inconclusive = about 30% to 50%; inactive = below about 30%; also: 0% is about no effect; the text of the record puts the active cut at 80%
Target sequence (Q9GZU1 whole entry, looked up): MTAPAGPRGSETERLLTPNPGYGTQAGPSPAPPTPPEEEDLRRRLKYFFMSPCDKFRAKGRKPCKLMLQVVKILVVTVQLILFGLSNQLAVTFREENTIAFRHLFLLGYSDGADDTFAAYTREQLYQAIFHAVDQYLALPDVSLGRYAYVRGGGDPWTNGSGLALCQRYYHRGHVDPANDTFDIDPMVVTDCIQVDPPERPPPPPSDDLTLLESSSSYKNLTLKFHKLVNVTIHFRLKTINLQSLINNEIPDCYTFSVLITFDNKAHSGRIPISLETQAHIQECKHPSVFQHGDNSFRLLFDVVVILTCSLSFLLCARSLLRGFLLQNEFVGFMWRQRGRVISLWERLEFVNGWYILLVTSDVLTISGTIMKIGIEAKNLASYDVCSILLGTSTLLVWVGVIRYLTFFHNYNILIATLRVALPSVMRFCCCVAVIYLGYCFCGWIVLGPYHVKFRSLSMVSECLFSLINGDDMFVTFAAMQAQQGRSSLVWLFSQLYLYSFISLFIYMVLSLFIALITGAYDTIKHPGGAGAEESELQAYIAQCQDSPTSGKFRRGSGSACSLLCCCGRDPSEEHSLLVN
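Calcium fluorescence on an FDSS kinetic reader gave the read-out. Tet-induced TRPML1-DL cells were plated overnight, dye-loaded (Ca8 with quencher, 45-90 min, room temperature, dark), then read 110 s after compound addition, and again 110 s after 4uM final 54-4 (EC80).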
CtBP-E1A blk = qHTS Assay for Inhibitors of the CtBP/E1A Interaction | 340,000 compounds, 0.49% hits | activity change, % (no concentration beside the values) | CtBP / adenovirus E1A interaction (AlphaScreen) | AlphaScreen GST-E1A/His-CtBP binding, 1536-well; active compounds read low; control for the full effect not named in the record; in the data active means activity change below about -65%; inconclusive means about -30% to -65%; inactive means above about -30%; also: % is scaled to controls: 0 for no effect and ±100 for the full control effect
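Protein mix (5X: 125 nM each GST-E1A, His-CtBP) was incubated with pinned compound 2 h at 37 deg C in dark, in 50 mM Tris pH 8.0 buffer with 300 mM NaCl. Glutathione donor and nickel acceptor beads followed; AlphaScreen signal read after 1 h.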
TRPML1 blocker = qHTS for Inhibitors of the Human Mucolipin Transient Receptor Potential 1 (TRPML1). Mucolipin-1 (Homo sapiens), Q9GZU1. TRPML1-inducible cells, Ca2+ dye fluorescence, FDSS; active compounds read low; inhibition of EC80 agonist-evoked calcium signal. activity change, negative = inhibition, % (test concentration not listed). 390,000 compounds, 0.02% hits. AID 624415, 2012; in the data active means activity change below about -50%; inconclusive means about -30% to -50%; inactive means above about -30%;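 also: stimulus is agonist 54-4 at its EC80 concentration; % is scaled to controls: 0 for no effect and ±100 for the full control effect; compound concentration not given in the record; the text of the record puts the active cut at -80%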
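Calcium fluorescence in TRPML1-DL cells induced overnight with Tet: a 110 s read after compound pin addition, then a 110 s antagonist read after challenge with 54-4 at 4 uM final (EC80).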
Six1-Eya2 inh = qHTS Assay for Inhibitors of the Six1/Eya2 Interaction | AID 651725, 2012 | 360,000 compounds, 0.56% hits | Homeobox protein SIX1 (Homo sapiens) + Protein phosphatase EYA2 (Homo sapiens), … | activity change, % (test concentration not listed) | AlphaScreen GST-Six1/His-Eya2 binding, biochemical; active compounds read low; control for the full effect not named in the record; in the data active = activity change below about -65%; inconclusive = about -30% to -65%; inactive = above about -30%; also: % is scaled to controls: 0 for no effect and ±100 for the full control effect
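AlphaScreen luminescence read after one hour at 37 °C in darkness. Pin-transferred compounds met GST-Six1 and His-Eya2 protein (5X stock 250 nM/500 nM) plus glutathione donor and Ni-chelate acceptor beads (5X, 50 ug/mL).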
Active calls of the source: *; ? = inconclusive; · = not tested or not shown; & = joins results of further samples.

entry	compound	D2 PAM	TRPV1 potentiator	TRPML1 ag	CtBP-E1A blk	TRPML1 blocker	Six1-Eya2 inh
1	COCCNC(=S)N1CCN(c2cccc(C(F)(F)F)c2)CC1	-8.6	-1.2	-0.6	-22.3	12.1	-0.6
2	CCc1nc2c(OCCOC)cccn2c1N(C)C(=O)Nc1ccccc1OC	-1.1	·	-0.7	5.4	·	2.5
3	COC(=O)c1ccc(CSC2=NC[C@@H]3[C@@H]4C(=O)N(C)C(=O)[C@@H]4[C@](Cc4ccccc4)(C(=O)OC)N23)cc1	-17.5	·	1.3	-6.4	5.6	-2.8
4	COc1ccc(CCN(C)C(=O)Cn2c(=O)oc3ccccc32)cc1OC	0.1	-18.3	1.5	-4.6	-16.8	1.4
5	O=C1C(=O)N(Cc2ccncc2)C(c2cccc(O)c2)/C1=C(\O)c1ccc2c(c1)OCCO2 (centres undefined)	-9.9	-2.0	0.7	-7.1	13.2	2.1
6	CCOc1ccc(CNC(=O)c2ccc(Sc3ccc(C)cc3)c(NC(C)=O)c2)cc1	-7.6	-2.0	2.8	-2.5	11.3	-1.0
7	CC(C)(C)NC(=O)CSc1nc2ccccc2c(=O)[nH]1	0.2	1.6	1.7	12.4	31.8	-6.3
8	COC(=O)Nc1ccc2c(c1)N(C(=O)CCN1CCN3CCCC3C1)c1ccccc1CC2 (centres undefined)	-19.2&-4.3	-0.1&26.0	0.3&0.3	1.7&2.0	-6.2&40.4	10.6&2.5
9	O=c1oc2c(CN3CCOCC3)c(O)ccc2c2ccccc12	-43.2	-8.0	-1.0	-5.7	2.5	-7.8
10	CCCCNC(=S)NNC(=O)c1c(C)nc2ccccn12	-15.7	8.0	-1.1	-11.4	-9.0	-6.5
11	COc1cc(/C=N/NC(=O)c2sc3nc(C)cc(C)c3c2N)ccc1O	-4.8	4.5	0.5	?	2.5	?
12	COc1ccccc1CNC(=O)CN1C(=O)NC(C)(c2ccc(C)cc2)C1=O (centres undefined)	-5.7	-3.6	0.5	0.0	10.7	6.5
13	O=C(CN1CCN(c2ccc(Cl)cc2)CC1)NCc1ccccc1	-4.4	-3.2	-0.2	2.5	16.7	0.4
14	CCOc1ccc(S(=O)(=O)N(C)c2ccc(OCC(=O)N3c4ccc(C)cc4C4CN(C)CCC43)cc2)cc1 (centres undefined)	-24.7	-7.4	0.1	-12.3	7.8	-14.5
15	OCCCNC(=S)Nc1ccc(Br)cc1Cl	9.8	·	-0.4	3.9	25.3	0.0

Rewritten with two lines to a compound: entries from further up.
Each structure is followed by: D2 PAM | TRPV1 potentiator | TRPML1 ag | CtBP-E1A blk | TRPML1 blocker | Six1-Eya2 inh
9. O=c1oc2c(CN3CCOCC3)c(O)ccc2c2ccccc12
 : -43.2 | -8.0 | -1.0 | -5.7 | 2.5 | -7.8
4. COc1ccc(CCN(C)C(=O)Cn2c(=O)oc3ccccc32)cc1OC
 : 0.1 | -18.3 | 1.5 | -4.6 | -16.8 | 1.4

(cont.)
entry	compound	D2 PAM	TRPV1 potentiator	TRPML1 ag	CtBP-E1A blk	TRPML1 blocker	Six1-Eya2 inh
16	COc1ccc2[nH]cc(C(=O)CN3CCCCC3)c2c1	-11.3	8.5	-0.1	0.1	-4.6	12.6
17	O=C(c1cnc2sccn2c1=O)N1CCc2ccccc2C1	-10.9	20.1	0.4	-2.8	-20.0	-0.9
18	CC1(C(=O)NS(=O)(=O)C2CC2)CCN(C(=O)COCc2ccccc2)C1 (centres undefined)	-6.3	·	0.1	9.8	12.9	14.3
19	N#Cc1cnn2c1nc(N1CCCCC1)c1ccccc12	?	·	1.0	-2.8	-2.1	1.1
20	O=C(CSc1nnc(-c2cccnc2)o1)Nc1ccccc1Br	4.1	-4.6	1.0	-9.1	22.9	6.3
21	COCCCn1c(C)csc1=Nc1cccnc1	-7.9	4.3	0.8	0.0	-4.2	17.9
22	NS(=O)(=O)c1ccc(CCNC(=O)C(=O)NCC2OCCN2C(=O)c2ccc3c(c2)OCO3)cc1 (centres undefined)	1.6	4.2	-0.4	-0.4	-7.0	3.4
23	COc1ccc([C@@H]2[C@@H]3C(=O)N(C(C)(C)C)C(=O)[C@@H]3[C@]3(Cc4ccccc4)C(=O)N(c4cccc(F)c4)C(=O)N23)cc1	-6.3	7.6	1.2	-1.1	-8.7	-0.4
24	CCOC(=O)N/N=C\c1ccc(OC/C=C/c2ccccc2)cc1	-3.7	-3.1	3.4	-0.2	-7.4	-0.5
25	CC(C)COc1ccc(C(=O)NNC(=O)c2ccc(=O)[nH]c2)cc1	-2.5	0.9	0.1	-1.8	2.1	9.1
26	COc1cccc(OCC(=O)NNC(=O)c2ccc(-c3ccccc3)cc2)c1	0.0	·	3.7	2.8	7.6	4.0
27	O=S(=O)(NCc1ccco1)c1ccc(Cl)nc1	-3.4	6.3	1.4	-24.3	-23.7	10.4
28	CCC/C=N/NC(=O)c1cc(Br)ccc1O	-13.4	6.9	0.8	-10.8	28.3	-12.1
29	O=C(NCCCN1CCCC1=O)C(=O)Nc1cccc(F)c1	1.1	-1.1	1.5	13.3	11.4	-1.9
30	COc1ccc(OC)c(C2CC(c3ccccc3)=NN2C(=S)Nc2ccccc2)c1 (centres undefined)	-9.3	-4.8	0.8	-15.7	-24.1	-2.3

Whole records, quoted from the list. Values in the order: D2 PAM, TRPV1 potentiator, TRPML1 ag, CtBP-E1A blk, TRPML1 blocker, Six1-Eya2 inh
Profile of `O=C(CSc1nnc(-c2cccnc2)o1)Nc1ccccc1Br` = 4.1, -4.6, 1.0, -9.1, 22.9, 6.3
Profile of `CCOC(=O)N/N=C\c1ccc(OC/C=C/c2ccccc2)cc1` = -3.7, -3.1, 3.4, -0.2, -7.4, -0.5

The listing continues:
entry	compound	D2 PAM	TRPV1 potentiator	TRPML1 ag	CtBP-E1A blk	TRPML1 blocker	Six1-Eya2 inh
31	CCOC(=O)CSc1nc(N(C)C)nc(N(C)C#N)n1	-2.7	-10.6	0.4	-3.1	7.2	1.1
32	COc1ccc(-c2sc(Nc3ccccc3)n[n+]2-c2ccc(F)cc2)cc1Br	-10.3	-14.0	1.2	-8.1	48.3	0.8
33	CCCNC(=O)Nc1cccc(NC(C)=O)c1	-1.5	3.0	0.0	4.8	15.2	-3.4
34	COc1ccc2oc(C(=O)Nc3cccc(S(=O)(=O)N4CCOCC4)c3)c(C)c2c1	5.3	-3.0	0.8	-15.6	-23.5	?
35	Cc1nonc1C1CCCN1C(=O)c1cc(COc2ccc(F)cc2F)on1 (centres undefined)	-3.6	-9.2	0.5	2.2	-5.7	0.0
36	CCN(CC)S(=O)(=O)c1ccc(N2CCOCC2)c(NC(=O)C2CSC3(C)CCC(=O)N23)c1 (centres undefined)	-1.9	9.0	-0.4	1.8	-9.8	-0.9
37	CC(=O)Nc1cccc(NC(=O)C2CC(=O)N(CCc3ccc(F)cc3)C2)c1 (centres undefined)	-7.1	5.5	0.3	-4.3	10.0	-4.8
38	C[C@@H]1CN([C@H](C)CO)C(=O)CCCn2nncc2CO[C@@H]1CN(C)C(=O)Nc1ccc(N2CCN(C)CC2)cc1	-6.0	·	1.2	-3.1	0.2	15.5
39	CCN(CC)S(=O)(=O)c1cc(C(=O)Nc2cc(S(=O)(=O)N3CCOCC3)ccc2N2CCN(C)CC2)ccc1C	-5.8	·	-0.5	·	29.7	-6.0
40	O=C(O)c1cc2c(cc1Cl)N1CCCCCC1=NS2(=O)=O	7.5	5.0	2.8	·	1.9	0.4
41	Cc1ccc(NC(=O)C(CC(=O)O)C2CCCO2)c(C)c1 (centres undefined)	-1.4	5.7	0.8	-3.3	12.2	13.1
42	COc1cc(N=Nc2c(C)n(C)n(-c3ccccc3)c2=O)ccc1N	-3.0	0.9	0.3	-3.3	11.3	-4.2
43	COc1ccc(-c2ncncc2-c2ccc(Cl)cc2)c(O)c1	-4.2	-1.9	1.1	2.6	-15.0	6.3
44	COc1cc(CNCc2cccnc2)ccc1OCc1ccccc1	-13.1	0.5	0.0	-5.3	-5.1	-5.9
45	Cc1ccc(S(=O)(=O)c2nc(S(=O)(=O)c3ccccc3)sc2N2CCN(CCO)CC2)cc1	-25.0	-17.4	-0.1	0.1	-8.6	0.0
46	COc1nc(NCCN2CCOCC2)nc(Nc2ccc([N+](=O)[O-])cc2)n1	-6.7	-37.9	-0.3	-17.6	-0.5	-16.0
47	CC(=O)C1=C(O)C(=O)N(Cc2cccnc2)C1c1ccc(C(C)C)cc1 (centres undefined)	-9.8	-0.3	0.6	·	5.5	5.2
48	COc1ccc(-c2nc(CN3CCN(C(=O)c4ccco4)CC3)c(C)o2)cc1OC	3.0	-3.4	-0.1	·	2.2	-1.5
49	COc1cc(/C=C2\C(=O)N(C)C(=S)N2C)ccc1O	-5.7	1.0	2.1	1.8	34.2	-5.5
50	Cc1cnc(C(=O)OCC(=O)c2ccc(Br)s2)cn1	-3.8	?	0.1	-2.0	-14.5	4.9
51	COc1ccc2[nH]c3c(c2c1)CCN1C(=O)N([C@@H](C)C(=O)NCCc2ccc(F)cc2)C(=O)[C@]31C	-39.5	-10.1	·	-20.6	·	?
52	N#Cc1nc(-c2ccco2)oc1N1CCN(c2ccccc2)CC1	-28.9	-29.1	-0.4	-22.3	12.8	?
53	CN(C)c1ccc(-c2noc(C3CCN(S(=O)(=O)c4cccc(Cl)c4)CC3)n2)cc1	-3.7	2.1	2.2	-8.3	0.9	-5.9
54	CCOC(=O)c1cnn(-c2ccccc2)c1NC(=O)c1cccs1	1.5	3.0	-0.4	-9.7	-1.0	-0.5
55	Cc1sc(NC(=O)CSc2nnc3scc(-c4ccccc4)n23)c(C#N)c1C	-2.1	-0.1	2.5	1.2	28.6	0.9
56	CN(C)CCCNC(=O)c1cccc(-c2cnc3cccnn23)c1	-5.0	·	-0.9	-9.6	·	-13.3
57	COc1ccc(Cl)cc1-c1nc(SCC(=O)N(C)CCC#N)n[nH]1	-10.1	2.2	-0.2	0.3	-2.1	3.9
58	COc1ccccc1/C=C(/CC(=O)NCc1ccc(F)cc1)c1nc2ccccc2s1	-15.9	-13.4	0.0	4.3	11.4	-3.4
59	Cc1ccc(S(=O)(=O)N2CCC(C(=O)NNC(=O)C3CC3)CC2)cc1Cl	1.4	0.9	0.0	1.9	-17.5	8.0
60	CCN1C(=O)[C@@H]2[C@H](C1=O)[C@@H]1CC(C(=O)OC)=C[C@@H](C(=O)OC)C3C1=C(C(=O)C3(CC)CC)[C@@H]2C (some centres undefined)	-1.3	·	2.9&0.2	-6.2	5.9&7.3	-8.3
61	O=C(Nc1ccc(Cl)c(Cl)c1)c1ccc2c(c1)OCO2	-21.5	-15.9	0.9	-3.7	8.2	5.3

Compounds as they come; about 0.95% have a hit in one of these screens.
